# Screening data from PubChem BioAssay.
# PINK1 expr mod – A Quantitative High throughput Screen to Identify Chemical Modulators of PINK1 Expression; Potency, µM (highest dose often 76.6 µM), for the others: at the top dose activation (PINK1 increase), most hits filed as activators; hit rate 0.2% among 410,000; PINK1 immunofluorescence, high-content cytometry, 24 h; active = well fitted activation curve with a large enough effect; inconclusive = small, poorly fitted or top-dose-only effect; inactive = flat fitted curve, though single readings scatter; cell line not stated here;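 also: potency is read from the fitted curve at half-maximal effect; % of control where 0% means no effect; nearly all actives have a fitted effect of over 65% in size; a mitochondrial uncoupler was the plate control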
#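 PINK1 protein level read as immunofluorescence by microplate cytometer in a fixed, stained stable cell line after 24 h exposure to five compound concentrations, with CCCP as control.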
# CtBP-E1A blk – qHTS Assay for Inhibitors of the CtBP/E1A Interaction. CtBP / adenovirus E1A interaction (AlphaScreen). AlphaScreen GST-E1A/His-CtBP binding, 1536-well; hits give low values; control for the full effect not named in the record. activity change, % (concentration not given with the values). hit rate 0.49% among 340,000; in the data active means activity change below about -65%; inconclusive means about -30% to -65%; inactive means above about -30%; also: % is scaled to controls: 0 for no effect and ±100 for the full control effect
#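 Homogeneous bead-based format: GST-tagged E1A captured on glutathione donor beads, His-tagged CtBP on nickel acceptor beads; compounds precede bead addition by 2 h at 37 °C.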
# D2 potentiator – Beta-Arrestin HTS for Positive Allosteric Modulators of the Human D2 Dopamine Receptor: Potentiators; potentiation, % (concentration not given with the values); hit rate 0.23% among 360,000; DiscoveRx D2 beta-arrestin cells, luminescence, 90 min; 100% = 57 uM dopamine signal; active = potentiation of 50% or more; inconclusive = 30% to 50%; inactive = 30% or less;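 also: compound concentration not given in the record; tested on top of an EC20 dose of dopamine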
# Target sequence (P14416 whole entry, looked up): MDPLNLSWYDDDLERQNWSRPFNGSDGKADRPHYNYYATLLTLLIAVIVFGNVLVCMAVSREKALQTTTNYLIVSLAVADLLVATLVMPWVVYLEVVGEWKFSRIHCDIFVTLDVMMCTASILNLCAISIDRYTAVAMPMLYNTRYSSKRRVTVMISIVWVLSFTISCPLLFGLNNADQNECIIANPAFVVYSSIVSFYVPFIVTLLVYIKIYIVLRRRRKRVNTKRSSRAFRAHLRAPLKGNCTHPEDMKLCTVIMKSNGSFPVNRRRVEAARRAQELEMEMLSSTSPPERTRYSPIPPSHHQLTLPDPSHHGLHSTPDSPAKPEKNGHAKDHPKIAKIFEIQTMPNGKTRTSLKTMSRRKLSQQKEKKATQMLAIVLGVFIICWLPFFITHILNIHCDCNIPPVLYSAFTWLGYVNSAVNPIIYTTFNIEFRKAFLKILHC
#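 D2 cells co-treated with compound plus 50 nM dopamine (EC20) for 90 min at 37 deg C to detect potentiation. Beta-arrestin recruitment was read as enzyme-fragment luminescence after 1 h at ambient temperature. Full response was set by 57 uM dopamine.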
# TRPML1 agonist – qHTS for Agonists of the Human Mucolipin Transient Receptor Potential 1 (TRPML1); TRPML1-expressing cells, Ca2+ dye fluorescence, FDSS; host cell line not named in the record; reference of the full effect not given here; activation, % (concentration not given with the values); Mucolipin-1 (Homo sapiens), Q9GZU1; hit rate 0.12% among 410,000; in the data active = activation above about 50%; inconclusive = about 30% to 50%; inactive = below about 30%; also: 0% is about no effect; the text of the record puts the active cut at 80%
# Target sequence (Q9GZU1 whole entry, looked up): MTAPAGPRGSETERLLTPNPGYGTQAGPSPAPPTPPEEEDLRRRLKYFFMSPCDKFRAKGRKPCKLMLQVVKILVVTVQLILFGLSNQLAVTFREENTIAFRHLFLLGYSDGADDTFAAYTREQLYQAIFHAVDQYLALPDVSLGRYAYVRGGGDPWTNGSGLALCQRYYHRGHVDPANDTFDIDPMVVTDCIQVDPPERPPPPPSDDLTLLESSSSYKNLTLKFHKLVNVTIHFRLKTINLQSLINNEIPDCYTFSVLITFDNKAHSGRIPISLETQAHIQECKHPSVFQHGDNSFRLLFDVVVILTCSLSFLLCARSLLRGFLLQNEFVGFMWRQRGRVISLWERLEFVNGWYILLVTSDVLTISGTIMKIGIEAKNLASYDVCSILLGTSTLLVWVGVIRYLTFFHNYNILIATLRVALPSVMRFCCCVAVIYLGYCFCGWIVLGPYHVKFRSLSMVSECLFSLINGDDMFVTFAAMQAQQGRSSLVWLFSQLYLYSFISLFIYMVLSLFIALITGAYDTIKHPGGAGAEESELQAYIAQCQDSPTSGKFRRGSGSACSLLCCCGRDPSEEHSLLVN
#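 Cells: TRPML1-DL, 1X Tet inducer, ~16 h at 37 degrees C/5% CO2. Dye: ABD Ca8 no-wash + quencher, 45-90 min RT. Read: 10 s baseline, compound add, 110 s agonist phase; 54-4 EC80 (4uM final), 110 s antagonist phase.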
# Six1-Eya2 blk – qHTS Assay for Inhibitors of the Six1/Eya2 Interaction | AID 651725, 2012 | activity change, % (concentration not given with the values) | AlphaScreen GST-Six1/His-Eya2 binding, biochemical; hits give low values; control for the full effect not named in the record | hit rate 0.56% among 360,000 | Homeobox protein SIX1 (Homo sapiens) + Protein phosphatase EYA2 (Homo sapiens), …; in the data active = activity change below about -65%; inconclusive = about -30% to -65%; inactive = above about -30%; also: % is scaled to controls: 0 for no effect and ±100 for the full control effect
#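 Compounds are tested against tagged Six1 and Eya2 proteins bridged by glutathione donor and nickel acceptor beads; after a one-hour incubation at 37 °C without light, AlphaScreen emission is recorded.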
# D2 ag – Beta-Arrestin HTS for Positive Allosteric Modulators of the Human D2 Dopamine Receptor: Agonists; DiscoveRx PathHunter D2 beta-arrestin, luminescence, 90 min; 100% = 57 uM dopamine signal; D(2) dopamine receptor (Homo sapiens), P14416; activation, % (no concentration beside the values); AID 624465, 2012; hit rate 0.084% among 360,000; in the data active = activation above about 40%; inconclusive = about 15% to 40%; inactive = below about 15%; also: compound concentration not given in the record; the text of the record calls up to 30% inactive
#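 Agonist mode: compounds alone added to overnight-plated D2 PathHunter cells for 90 min at 37 C, with 57 uM final dopamine (EC100) defining full response. Beta-arrestin recruitment detected by chemiluminescent reagent, read after 1 h at ambient temperature.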
# The depositor's hits bear a star; ? = inconclusive; nt = not tested or not shown; [ ] = dose if it differs, or a comment. Compounds as they come; overall some 1.3% were active at least once.
SMILES,PINK1 expr mod,CtBP-E1A blk,D2 potentiator,TRPML1 agonist,Six1-Eya2 blk,D2 ag
Cc1ccc(C)n1-c1nccc(-c2ccco2)n1,10.3%,-7.8,-1.5,-0.9,-14.1,-2.5
Nc1c(S(=O)(=O)c2ccccc2)cnc2c(-c3ccc(F)cc3)cnn12,?,-4.3,11.6,0.2,3.7,-1.3
CCN(CC)S(=O)(=O)c1ccc(N(C)C)c(NC(=O)CC(NC(C)=O)c2ccccc2)c1 (stereo unspecified),-0.9%,-15.0,-8.0,-0.8,-24.6,0.3
CC1(C(=O)NS(=O)(=O)Cc2ccccc2)CCN1C(=O)C1(c2ccc(Cl)cc2)CCC1 (stereo unspecified),-0.5%,2.2,-3.6,-0.7,7.8,-1.0
COc1ccc(C(CNC(=O)c2cc3ccccc3o2)N2CCCCC2)cc1 (stereo unspecified),0.9%,-0.9,-21.0,1.8,1.1,-2.2
COc1cccc(C(CC(=O)Nc2cccc3ccccc23)NC(=O)c2ccccc2)c1 (stereo unspecified),21.9%[38.3 µM],17.0,-9.9,-0.5,-1.2,-2.5
O=C1CC2(CCN(C(=O)COc3ccc(F)cc3)CC2)Oc2ccccc21,3.5%,-4.2,-3.8,-0.8,-2.8,-0.9
CC(C)NC(=O)c1nc2ccccc2s1,0.2%[38.3 µM],5.4,-7.7,-0.2,-0.6,-3.8
O=[N+]([O-])c1cccc(N(CC2CO2)S(=O)(=O)c2ccccc2)c1 (stereo unspecified),1.4%,6.5,-5.4,-0.4,-5.4,-2.7
Cc1ccc(NC(=S)NC(=O)c2ccccc2)cc1NC(=S)NC(=O)c1ccccc1,5.0%,nt,?,2.4,-8.0,-0.7
CCOC(=O)c1sc2ncn(CC(=O)N(CC)CC)c(=O)c2c1C,3.8%[38.3 µM],6.8,-15.7,-0.4,-0.2,-0.7
Cc1ccc2cc3c(nc2c1)OCC3,2.4%,4.6,0.1,0.8,-3.8,0.3
Cc1cc(SCC(=O)OCC(=O)NCc2ccc3c(c2)OCO3)c(C)cc1Br,0.3%,nt,-4.2,4.6,4.7,-7.3
CCOC(=O)N1CCN(c2c(NCCc3ccc(C)cc3)c(=O)c2=O)CC1,-1.4%,3.0,-2.8,0.0,8.8,-4.4
O=C(CN(C(=O)CNC(=O)c1ccco1)c1ccc(F)cc1)NC1CCCC1,-0.5%,7.7,-5.0,-0.2,-2.2,-1.3
NS(=O)(=O)c1ccc(CCNC(=O)Nc2ccc(Cl)c(Cl)c2)cc1,-2.2%[38.3 µM],-6.7,-10.1,1.5,-1.4,1.2
CCOc1cccc(CN2CCN(c3cccc(C(F)(F)F)c3)CC2)c1O,5.9%[38.3 µM],-19.0,-16.5,-0.2,-14.5,0.6
Cn1cc(C(=O)NCc2ccccc2F)cn1,2.1%,22.6,-20.9,-0.6,24.7,-2.8
CC(=O)Nc1ccc(N=c2cc([N+](=O)[O-])cc(Cl)n2O)cc1,0.2%,4.0,15.4,0.2,8.3,?
COC(=O)Cc1c(C)c2ccc(OCC(=O)N(C)C)cc2oc1=O,3.9%[38.3 µM],-0.3,-9.2,0.2,2.1,-1.7
c1n[nH]c(NC2=NCCC2)n1,-1.8%,?,3.5,0.1,?,-0.5
O=C(NCC(c1cccs1)N1CCOCC1)c1ccc(Cl)cc1 (stereo unspecified),2.7%,5.7,-23.5,0.1,3.8,-2.2
Fc1ccc(-c2cc(C(F)(F)F)nc(NCc3cccs3)n2)cc1,?,20.4,-29.4,2.8,65.9,2.0
Nc1ccc2nc(CN3CCOCC3)[nH]c2c1,-0.9%,-14.9,-34.2,0.2,-17.5,2.1
O=C(Nc1cccnc1)c1cc(-c2ccccc2)on1,0.0%,2.7,-15.8,-1.0,-1.2,-3.7
CN(C(=O)CSc1nc(O)cc(=O)n1C1CCCC1)c1ccccc1,-0.2%,0.5,0.2,1.8,-4.3,-1.7
c1ccc(Cn2ncc3c(Nc4ccccc4)ncnc32)cc1,0.2%,nt,-3.5,0.1,-7.3,7.3
CN1CCN(c2ccc([N+](=O)[O-])cc2C(=O)N2CCCCC2)CC1,1.8%,-3.5,-19.1,0.0,-5.5,0.3
Cc1n[nH]c(C)c1CCc1nc2c3ccccc3nc(SCC(N)=O)n2n1,-1.1%,-7.8,-1.4,-0.2,-4.6,-1.0
COc1cccc(-n2nc3c(-n4ncc(C#N)c4N)nnc(C)c3c2C)c1,-2.2%,9.7,-3.2,-0.2,-0.9,-5.1
COc1ccc(CC(=O)O)cc1O,0.2%,5.1,-12.4,0.8,7.8,-4.1
Cn1c(SCc2nc(-c3ccccc3)no2)nnc1-c1cccs1,-0.4%[38.3 µM],-3.3,-3.6,-0.8,-3.6,-1.9
COCC(=O)N1CCC(Oc2ccc(C(=O)NC(C)c3nccs3)cc2)CC1 (stereo unspecified),0.4%,7.9,2.9,0.3,-6.8,-0.1
COc1ccc(C(=S)N2CCN(c3cccc(Cl)c3)CC2)c(OC)c1,0.0%,-12.5,-3.6,0.2,-28.3,-3.7
Cc1ccc(SCc2[nH]nc3c2C2(C(=O)Nc4ccc(F)cc42)C(C#N)=C(N)O3)cc1 (stereo unspecified),4.2%,-2.8,18.9,-1.2,-6.6,4.6
C=CCNC(=S)NNC(=O)c1cccnc1,-0.7%,4.4,-5.1,0.5,2.2,-2.6

# Record cards (already shown). Order of values: PINK1 expr mod, CtBP-E1A blk, D2 potentiator, TRPML1 agonist, Six1-Eya2 blk, D2 ag
# COc1ccc(CC(=O)O)cc1O is listed with 0.2%, 5.1, -12.4, 0.8, 7.8, -4.1
# Cc1ccc(NC(=S)NC(=O)c2ccccc2)cc1NC(=S)NC(=O)c1ccccc1 is listed with 5.0%, nt, ?, 2.4, -8.0, -0.7

# Additional entries.
SMILES,PINK1 expr mod,CtBP-E1A blk,D2 potentiator,TRPML1 agonist,Six1-Eya2 blk,D2 ag
Cc1ccc(-c2nc(-c3cccnc3)no2)c(C)c1,0.8%,1.3,-6.7,3.2,2.8,-1.9
Cc1c(C(=O)OCC(=O)Nc2ccc(N3CCOCC3)cc2)oc2ccccc12,12.8%,0.7,-11.3,-0.6,0.1,-3.3
O=C(c1ccco1)N1N=C(c2ccco2)CC1c1ccc(Cl)cc1Cl (stereo unspecified),7.2%,18.1,-0.3,1.6,9.0,-4.1
Oc1ccccc1/C=N/n1c2ccccc2c2ccccc21,8.9%[38.3 µM],3.8,0.9,-0.3,0.6,3.6
CCOC(=O)CCn1nc(-c2ccc(Cl)cc2)cc1N,-1.0%,0.0,-6.4,-0.1,-0.8,0.9
O=c1c(/C=N/OCc2ccc(Cl)cc2Cl)c[nH]n1-c1cccc(Cl)n1,11.0%,4.0,-1.0,-0.3,1.3,-3.4
Oc1ccc(-c2nc3ccccc3nc2-c2ccccc2)cc1,0.5%,11.2,4.6,0.4,1.0,2.1
O=C(CSC1CCCCC1)N1CCN(c2ccccc2)CC1,1.7%,-5.0,-2.5,10.6,-0.9,0.6
O=[N+]([O-])c1cccc(S(=O)(=O)N2CCCCC2c2cccnc2)c1 (stereo unspecified),1.2%,0.1,?,nt,-5.3,7.2
COc1cc(NC(=O)Cn2cnc3c(NCc4ccccc4)ncnc32)cc(OC)c1OC,3.4%,-9.2,nt,0.2,-3.9,-0.2
C=C(Cl)COC(=O)[C@H]1C2C=CC(C2)C1C(=O)O (stereo partly specified),-0.3%,-0.9,-7.6,0.1,5.1,-0.1
CCCCCCCCC1CC(C(=O)Nc2ccccc2)C(=O)O1 (stereo unspecified),12.6%,nt,-20.9,1.2,11.8,-4.2
COC(=O)c1ccc([C@H]2C=C(C(=O)O)O[C@@H](OCc3ccc(CO)cc3)C2)cc1,-1.0%,-6.1,-7.4,1.4,-0.6,-3.1
O=C1CCC[C@@H]2[C@H]3CCC[N+]4([O-])CCC[C@@H](CN12)[C@@H]34 (stereo partly specified),3.7%,1.8,7.9,0.3,12.0,-1.9
O=C(c1ccncc1)N1N=C(C2CC2)CC1(O)C(F)(F)F (stereo unspecified),?,-5.7,-6.1,-0.5,6.3,-1.8
COc1cccc(CN2CCN(Cc3nc(-c4cccc(F)c4F)oc3C)CC2=O)c1,1.8%,4.1,-12.8,-1.0,9.6,-3.1
CC1CCCN(C(=O)COc2ccc(-c3ccccc3)cc2)C1 (stereo unspecified),2.2%,0.0,-2.8,0.5,-1.0,5.4
COc1cccc2sc3ccc(NCCC4CCCN4C)cc3c(=O)c12 (stereo unspecified),3.2%,?,-21.7,5.0,?,-2.6
Cc1ccc(C)c(OCCCNC2CCCC2)c1C,2.2%,0.0,-3.5,-0.4,12.0,-5.6
COc1cc(NC(=O)CN(C)S(=O)(=O)c2ccc3nc(C)sc3c2)cc(OC)c1,-0.6%,-3.8,-4.2,0.3,-16.0,0.1
O=C(NCCCc1ccccc1)c1ccc(-n2cncn2)c([N+](=O)[O-])c1,-0.9%,4.6,-0.6,0.0,-4.9,3.3
Cc1cc(C)n(-c2ccc(C(=O)OCc3ccccc3)cc2)n1,0.1%,25.0,-1.0,2.0,46.3,-1.2
CO/N=C/c1ccc(N2CCN(C(=O)c3cccc(C(F)(F)F)c3)CC2)c([N+](=O)[O-])c1,15.0%[38.3 µM],?,-1.1,-0.2,?,-0.7
COc1cc2c(cc1OC)C(c1ccc(-c3ccccc3Cl)o1)=NCC2,1.2%[38.3 µM],26.5,-20.9,2.3,?,1.0
O=C(O)CCCn1cc(NC(=O)c2sc3ccccc3c2Cl)cn1,0.2%,-6.6,7.1,0.8,-3.2,7.6
CCOc1ccc(S(=O)(=O)N2CCCC(C(=O)NCc3ccncc3)C2)cc1C (stereo unspecified),1.5%,10.1,-5.7,1.7,-3.6,-2.1
C=CCn1c(=O)c2ccccc2n2c(SCC(C)=O)nnc12,0.5%,0.4,-5.5,-0.5,-4.2,5.7
Cc1noc(C)c1NC(=O)N(C)C[C@@H]1OCc2cn(nn2)CCCC(=O)N([C@H](C)CO)C[C@H]1C,-0.5%,3.5,-3.9,0.4,4.1,-2.2
O=C(NCCc1ccccc1)c1ccc(=O)[nH]c1,0.6%,6.0,3.4,-0.3,5.1,1.2
O=C(C1=C[C@@H](C2CC2)C[C@@H](OCCCCO)O1)N1CCN(Cc2ccc3c(c2)OCO3)CC1,-0.1%,3.1,-14.7,-0.7,-0.9,-1.4
CC(=O)c1ccc(NC(=O)CN2C(=O)COc3ccc(Cl)cc32)cc1,1.3%,3.9,6.9,1.0,-6.6,7.2
CC(C(=O)NC1CCCC1)N1CCN(Cc2ccccc2)CC1 (stereo unspecified),-2.1%,-14.7,-11.9,0.5,5.5,-4.1
Cc1ccc(Cl)cc1N1CCN(C(=O)c2cc3c(=O)n(C)c4ccccc4c3n2C)CC1,4.2%,4.4,0.9,0.2,-1.2,-1.2
Cc1nc(Nc2ccc(Cl)cc2)c2nnn(Cc3ccccc3)c2n1,6.3%,2.0,6.5,0.0,0.2,-1.1
